H5N1 CPE: MDCK cell protection from H5N1 avian flu; cytopathic effect, luminescence, 72 h; hits give high values; no value below 0 was filed and about half of the inactive calls have no number; reference of the scale not given here; inhibition, % at 50 µM; 96,000 tested, 0.07% active; in the data active means inhibition above about 25%
* hit, by the source's call.

For CC1CCCCC1NC(=O)COC(=O)c1ccccc1NC(=O)c1ccco1 (stereo not drawn) the results were H5N1 CPE inactive.
`CCOC(=O)c1sc(NC(=O)Cn2nnc3sc4c(c3c2=O)CCCC4)nc1C` gave H5N1 CPE inactive.
Screening COc1cc(NS(=O)(=O)c2ccc(N/C=C(\C#N)c3nc4cc(Cl)ccc4o3)cc2)nc(OC)n1 returned H5N1 CPE inactive.
`COc1ccc(Cn2nc(C)n(N(C)c3ncc(C(F)(F)F)cc3Cl)c2=O)cc1` gave H5N1 CPE inactive.
Cc1ccnc(N2CCC(C(=O)NNC(=O)c3ccccc3)CC2)n1 was read as H5N1 CPE inactive.
Screening COC(=O)CC1COc2ccccc2N1C(=O)c1ccc(OC)cc1 (stereo not drawn) returned H5N1 CPE 1.1.
`O=S(=O)(c1ccc(Cl)cc1)N1CN2CCN(C2)C1` gave H5N1 CPE inactive.
`S=C(NCc1ccccc1)NCc1ccccc1` gave H5N1 CPE inactive.
Screening CCC(=O)Nc1cccc(C(=O)/C=C/c2ccccc2)c1 returned H5N1 CPE inactive.
`CC1CCN(c2ccc(C(=O)NCCc3ccccc3)cn2)CC1` gave H5N1 CPE 0.6.
`O=C(CN1CCCCCC1)Nc1ccc(Br)cc1` gave H5N1 CPE inactive.
For Nc1ncn(C23CC4CC(CC(C4)C2)C3)n1 the results were H5N1 CPE inactive.
For CCOc1ccc(C(=O)N2CCN(c3cccc(C)c3C)CC2)cc1 the results were H5N1 CPE 0.5.
O=C1CC(c2ccccc2)NC(=O)N1 (stereo not drawn) was read as H5N1 CPE inactive.
O=C(NC1CCCCC1)c1ccc2c(=O)n(CC3CCCO3)c(=O)[nH]c2c1 (stereo not drawn) was read as H5N1 CPE 0.1.
For CCOc1cc(/C=N/NC(=O)CNc2cccc(C)c2)ccc1OC(=O)c1ccccc1 the results were H5N1 CPE 9.2.
CCOc1ccccc1Nc1cc(C)nc2nc(C)nn12 was read as H5N1 CPE inactive.
`Cc1c(C(=O)N2CCOCC2)oc2c1C(=O)CC(C)(C)C2` gave H5N1 CPE 1.0.
Screening Nc1nc(NCc2ccccc2)nc(-c2ccccc2)n1 returned H5N1 CPE inactive.
Cc1ccc(-c2nnc3ccc(SCC(=O)NCc4ccco4)nn23)cc1 was read as H5N1 CPE 2.8.
For COc1ccc(CN2CCN(c3ccccn3)CC2)c(OC)c1 the results were H5N1 CPE inactive.
`O=C(CCN1C(=O)C2C3C=CC(C4CC34)C2C1=O)Oc1cccc2cccnc12` (stereo not drawn) gave H5N1 CPE 0.7.
Screening C=CCSc1nnc(Cn2c(=O)sc3ccccc32)n1C returned H5N1 CPE 0.3.
For Cc1cc(C)c([N+](=O)[O-])cc1-c1ccc(/C=N/NC(=O)c2nonc2N)o1 the results were H5N1 CPE inactive.
Screening Cc1nc2nc(-c3cccnc3)[nH]n2c(=O)c1Cc1ccccc1 returned H5N1 CPE inactive.
`COc1ccc2c(c1OC)C(=O)OC2Nc1ccccc1S(=O)(=O)C(F)F` (stereo not drawn) gave H5N1 CPE 0.1.
For CN(C)C(CNC(=O)NC1CCCCC1)c1cccnc1 (stereo not drawn) the results were H5N1 CPE inactive.
For Cc1ccccc1-c1nnc(-c2ccc(Cl)cc2)o1 the results were H5N1 CPE inactive.
For O=C(NCc1ccccc1)c1csc2c1CCCCC2 the results were H5N1 CPE inactive.
`CCOC(=O)N1CCN(C(=O)c2ccc(N3C(=O)c4ccccc4C3=O)cc2)CC1` gave H5N1 CPE 0.8.
For CCOC(=O)N1CCC(Nc2c(NCCCN(CC)c3cccc(C)c3)c(=O)c2=O)CC1 the results were H5N1 CPE 0.5.
CCCCOc1cccc(/C=N/NC(=O)c2csc(C)c2C)c1 was read as H5N1 CPE 0.4.
For CCC(C)NC(=O)c1cc(C)no1 (stereo not drawn) the results were H5N1 CPE 0.4.
For CCCOc1ccccc1NC(=O)c1ccc(N)cc1 the results were H5N1 CPE inactive.
`COC(=O)CSc1nc(-c2ccccc2)cc(-c2ccco2)c1C#N` gave H5N1 CPE 1.4.
Screening O=c1cc(O)c(-c2ccccc2)c(Cl)[nH]1 returned H5N1 CPE 1.0.
Screening Cc1ccnc(NC(=O)CCC(=O)N(CC(=O)NCCc2ccccc2)Cc2ccco2)c1 returned H5N1 CPE inactive.
O=C(NCc1ccco1)c1ccc2c(=O)n(CCC3=CCCCC3)c(=O)[nH]c2c1 was read as H5N1 CPE 0.6.
Cc1cc(Oc2ccccc2)nc(OCC#N)n1 was read as H5N1 CPE inactive.
For CCOC(=O)Nc1sc(NS(=O)(=O)c2ccccc2)nc1C the results were H5N1 CPE inactive.
For Cc1ccc(/C=N/NC(=O)C(NC(=O)c2ccccc2)c2n[nH]c(=O)c3ccccc23)cc1 (stereo not drawn) the results were H5N1 CPE inactive.
For CC1CN=C(NCc2ccncc2)S1 (stereo not drawn) the results were H5N1 CPE inactive.
For CCCCNc1nc2ccccc2n1CC(=O)N1CCc2ccccc2C1 the results were H5N1 CPE inactive.
O=C1c2ccccc2NC(c2ccccn2)N1c1ccc(Cl)cc1 (stereo not drawn) was read as H5N1 CPE 1.5.
For CCCCCn1c(N(C)Cc2ccccc2)nc2c1c(=O)[nH]c(=O)n2C the results were H5N1 CPE 1.2.
Screening Cc1ccc(-c2nc(NC(=O)c3nn(C)cc3[N+](=O)[O-])sc2C)cc1C returned H5N1 CPE inactive.
Screening CS(=O)(=O)Nc1ccc(C(=O)N2CCN(c3ccccc3F)CC2)cc1 returned H5N1 CPE 0.3.
For CC(C)(C)NC(=O)CN(C(=O)CS(=O)CC(=O)Nc1ccc(F)cc1)c1ccc(Cl)cc1 (stereo not drawn) the results were H5N1 CPE inactive.
COCCn1c(C23CC4CC(CC(C4)C2)C3)n[nH]c1=S was read as H5N1 CPE 0.3.
Screening Cc1noc(C)c1S(=O)(=O)NCCCN1CCN(Cc2ccccc2)CC1 returned H5N1 CPE inactive.
`Cc1c(NCc2nc3ccccc3[nH]2)c(=O)n(-c2ccccc2)n1C` gave H5N1 CPE inactive.
For CN1C(=O)CC(N2CCN(CC(N)=O)CC2)C1=O (stereo not drawn) the results were H5N1 CPE 0.6.
O=C(/C=C/c1c(F)cccc1Cl)c1ccc(F)cc1 was read as H5N1 CPE 0.8.
CN(C)C(=O)Nc1cccc(OC(=O)N(C)C)c1 was read as H5N1 CPE 2.4.
CCOc1ccc(-c2nc(N)ncc2Oc2ccccc2Br)c(O)c1 was read as H5N1 CPE inactive.
COc1cc(CNCCc2c[nH]c3ccccc23)ccc1OCc1ccc(F)cc1 was read as H5N1 CPE inactive.
For CCOc1ccc(N2C(=O)c3cccnc3C2Nc2ccc(C)c(C)c2)cc1 (stereo not drawn) the results were H5N1 CPE 1.2.
`Cc1nn(Cc2ccc(Cl)cc2)c(C)c1NC(=O)CSc1nc2c(c(C(F)(F)F)n1)CCc1ccccc1-2` gave H5N1 CPE inactive.
Screening CCOC(=O)c1sc(C)c2c(=O)n(CC)nnc12 returned H5N1 CPE inactive.
For Cc1ccc(S(=O)(=O)Nc2cc(-c3nn(C)c(=O)c4ccccc34)ccc2N2CCOCC2)cc1 the results were H5N1 CPE inactive.
CCNC(=O)/C=C1\NC(C)(C)Cc2c1ccc1ccccc21 was read as H5N1 CPE inactive.
Screening CCOc1cc(/C=N/NC(=O)Cn2nc([N+](=O)[O-])cc2C)cc(Br)c1OCc1ccccc1C returned H5N1 CPE 0.4.
CCOC(=O)c1sc(NC(C)=O)nc1C was read as H5N1 CPE 1.2.
Screening Cn1c(CNC(=O)c2ccc(F)cc2)nc2ccccc21 returned H5N1 CPE 1.7.
`CC(=NCc1ccco1)c1c(O)n(C)c(=O)n(C)c1=O` gave H5N1 CPE 2.7.
`COCc1nnc(NC(=O)CSc2ccc(C)cc2)s1` gave H5N1 CPE inactive.
Screening COc1cccc(-c2nc(CC(=O)O)cs2)c1OC returned H5N1 CPE inactive.
Screening CCCNC(=O)c1ccccc1NC(=O)CN(c1ccccc1OCC)S(C)(=O)=O returned H5N1 CPE 0.8.
Screening CCC(=NCCC1=CCCCC1)c1c(O)[nH]c(=O)[nH]c1=O returned H5N1 CPE 1.5.
`CCOc1ccc(NC(=O)CNC(=O)c2ccc(OC)c(OC)c2)cc1` gave H5N1 CPE inactive.
COc1ccc(CCNC(=O)CSc2nnnn2-c2ccccc2)cc1 was read as H5N1 CPE 1.2.
Nc1cc(=O)nc(SCc2ccccc2)n1Cc1ccco1 was read as H5N1 CPE inactive.
`COc1cccc(Cn2c(NCc3ccco3)nc3c2c(=O)n(C)c(=O)n3C)c1` gave H5N1 CPE 1.9.
`Cc1cccc(C)c1NS(=O)(=O)c1ccc(F)cc1` gave H5N1 CPE inactive.
O=C(/C=C/c1ccccc1)NC(=S)Nc1ccc(N2CCOCC2)c(Cl)c1 was read as H5N1 CPE inactive.
CCOC(=O)N1CCC(NC(=O)c2cn(-c3ccc(OC)cc3)c(=O)c3ccccc23)CC1 was read as H5N1 CPE inactive.
Screening CCOC(=O)C1(C)/C(=N/Nc2ccc(Cl)cc2)C(=O)C(=O)N1c1ccccc1 (stereo not drawn) returned H5N1 CPE inactive.
For COc1ccccc1C1CC(c2cccs2)=Nc2ccccc2S1 (stereo not drawn) the results were H5N1 CPE 1.0.
CCOC(=O)c1[nH]c(C)c(C(=O)Nc2ccc(Cl)cc2)c1C was read as H5N1 CPE inactive.
For Cc1ccc([N+](=O)[O-])cc1NC(=O)CN1CCC(C)CC1 the results were H5N1 CPE 0.9.
For CC1(C)CC(=O)C2=C(C1)OC(N)=C(C#N)C21C(=O)N(CN2CCOCC2)c2ccccc21 (stereo not drawn) the results were H5N1 CPE inactive.
`NC(=O)C1CC(=O)N(Cc2ccc3c(c2)OCO3)C(=Nc2ccccc2)S1` (stereo not drawn) gave H5N1 CPE 0.5.
Cc1cccc(N2CC3=C(C2=O)C(c2ccccc2)NC(=O)N3C)c1 (stereo not drawn) was read as H5N1 CPE 1.0.
CCN(Cc1ccccc1)C(c1ccncc1)c1nnnn1C(C)(C)C (stereo not drawn) was read as H5N1 CPE 1.9.
Screening N/C(=N\OC(=O)CCCN1C(=O)c2ccccc2C1=O)c1ccc(Cl)cc1 returned H5N1 CPE inactive.
For O=C(COc1ccccc1)N1CCN(C/C=C/c2ccccc2)CC1 the results were H5N1 CPE inactive.
CCC(Oc1ccccc1)C(=O)Nc1cc(C)on1 (stereo not drawn) was read as H5N1 CPE inactive.
For COc1ccc(CCNc2nc(-c3sc(C)nc3C)cs2)cc1OC the results were H5N1 CPE inactive.
Cc1ccc(NC(=O)c2ccc(S(=O)(=O)N3CCCCC3)cc2)cc1 was read as H5N1 CPE inactive.
Cn1c2c(c(=O)[nH]c1=O)C(NC(=O)c1ccco1)(C(F)(F)F)C(=O)N2 (stereo not drawn) was read as H5N1 CPE 0.2.
Screening O=C(CSc1nnnn1C1CCCCC1)NCCc1ccccc1 returned H5N1 CPE 0.3.
Screening CCOC(=O)CSc1nnc(C)c(=O)[nH]1 returned H5N1 CPE inactive.
For CC(=O)n1nc(-c2ccco2)nc1SCc1ccccc1 the results were H5N1 CPE 3.1.
`CCN(CC)S(=O)(=O)c1cccc(-c2nnc(SCC(=O)NCCC3=CCCCC3)n2N)c1` gave H5N1 CPE inactive.
Screening O=C(CN1C(=O)COc2ccccc21)Nc1ccc(F)cc1 returned H5N1 CPE 1.6.
Screening COC(=O)c1cccc(NC(=O)/C=C/c2cccc([N+](=O)[O-])c2)c1 returned H5N1 CPE 2.4.
Screening COn1c2c(c3c4nonc4ccc31)CCCC2 returned H5N1 CPE inactive.
For O=c1[nH]c(=O)n(CCc2ccccc2)c(O)c1C=NCCCn1ccnc1 the results were H5N1 CPE 0.9.
For COc1ccc(-c2nnc3ccc(SCC(=O)N4CCCC4)nn23)cc1 the results were H5N1 CPE 4.4.
Cc1ccc(CNC(=O)CCNS(=O)(=O)c2cccc3nonc23)cc1 was read as H5N1 CPE 0.8.

A draw from above in order of molecular weight, ascending.
Screening COn1c2c(c3c4nonc4ccc31)CCCC2 returned H5N1 CPE inactive.
For CC(=O)n1nc(-c2ccco2)nc1SCc1ccccc1 the results were H5N1 CPE 3.1.
Screening O=C(CN1C(=O)COc2ccccc21)Nc1ccc(F)cc1 returned H5N1 CPE 1.6.

Ordered by molar mass (rising): some entries from above.
Screening CCOC(=O)CSc1nnc(C)c(=O)[nH]1 returned H5N1 CPE inactive.
CCC(Oc1ccccc1)C(=O)Nc1cc(C)on1 (stereo not drawn) was read as H5N1 CPE inactive.
For CC(=O)n1nc(-c2ccco2)nc1SCc1ccccc1 the results were H5N1 CPE 3.1.
Screening COC(=O)c1cccc(NC(=O)/C=C/c2cccc([N+](=O)[O-])c2)c1 returned H5N1 CPE 2.4.
Cc1cccc(N2CC3=C(C2=O)C(c2ccccc2)NC(=O)N3C)c1 (stereo not drawn) was read as H5N1 CPE 1.0.
Screening O=C(CSc1nnnn1C1CCCCC1)NCCc1ccccc1 returned H5N1 CPE 0.3.
CCN(Cc1ccccc1)C(c1ccncc1)c1nnnn1C(C)(C)C (stereo not drawn) was read as H5N1 CPE 1.9.
Cn1c2c(c(=O)[nH]c1=O)C(NC(=O)c1ccco1)(C(F)(F)F)C(=O)N2 (stereo not drawn) was read as H5N1 CPE 0.2.
For O=c1[nH]c(=O)n(CCc2ccccc2)c(O)c1C=NCCCn1ccnc1 the results were H5N1 CPE 0.9.
For COc1ccc(-c2nnc3ccc(SCC(=O)N4CCCC4)nn23)cc1 the results were H5N1 CPE 4.4.
For COc1ccc(CCNc2nc(-c3sc(C)nc3C)cs2)cc1OC the results were H5N1 CPE inactive.
`NC(=O)C1CC(=O)N(Cc2ccc3c(c2)OCO3)C(=Nc2ccccc2)S1` (stereo not drawn) gave H5N1 CPE 0.5.
Screening N/C(=N\OC(=O)CCCN1C(=O)c2ccccc2C1=O)c1ccc(Cl)cc1 returned H5N1 CPE inactive.
For CC1(C)CC(=O)C2=C(C1)OC(N)=C(C#N)C21C(=O)N(CN2CCOCC2)c2ccccc21 (stereo not drawn) the results were H5N1 CPE inactive.

New compounds follow:
Screening CCc1nc2ccc(C(=O)NCc3ccco3)cc2nc1CC returned H5N1 CPE 1.1.
O=C(O)C1C2C=CC(O2)C1C(=O)NCc1ccc(Cl)cc1 (stereo not drawn) was read as H5N1 CPE 0.1.
For COc1ccc(/C=N\n2nnc3ccccc32)cc1 the results were H5N1 CPE inactive.
Cc1cccc(CS(=O)(=O)Cc2ccc(C(=O)NCc3ccco3)o2)c1 was read as H5N1 CPE 0.0.
Cc1ccc(SCc2cc(=O)[nH]c(Nc3nc(C)c4cccc(C)c4n3)n2)cc1 was read as H5N1 CPE 1.1.

Compound activity as filed in PubChem.

These rows are one share of the data. The share of hits here may be higher or lower than overall.
